Screens (PubChem BioAssay)
TRPML1 inh: inhibitors of human TRPML1 channel | Q9GZU1 | TRPML1-inducible cells, Ca2+ dye fluorescence, FDSS; hits give low values; inhibition of EC80 agonist-evoked calcium signal | activity change, negative = inhibition, % (test concentration not listed) | 0.02% of 390,000 active | AID 624415; in the data active means activity change below about -50%; inconclusive means about -30% to -50%; inactive means above about -30%;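 also: stimulus is agonist 54-4 at its EC80 concentration; % is scaled to controls: 0 for no effect and ±100 for the full control effect; compound concentration not given in the record; the text of the record puts the active cut at -80%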
Target sequence (Q9GZU1 whole entry, looked up): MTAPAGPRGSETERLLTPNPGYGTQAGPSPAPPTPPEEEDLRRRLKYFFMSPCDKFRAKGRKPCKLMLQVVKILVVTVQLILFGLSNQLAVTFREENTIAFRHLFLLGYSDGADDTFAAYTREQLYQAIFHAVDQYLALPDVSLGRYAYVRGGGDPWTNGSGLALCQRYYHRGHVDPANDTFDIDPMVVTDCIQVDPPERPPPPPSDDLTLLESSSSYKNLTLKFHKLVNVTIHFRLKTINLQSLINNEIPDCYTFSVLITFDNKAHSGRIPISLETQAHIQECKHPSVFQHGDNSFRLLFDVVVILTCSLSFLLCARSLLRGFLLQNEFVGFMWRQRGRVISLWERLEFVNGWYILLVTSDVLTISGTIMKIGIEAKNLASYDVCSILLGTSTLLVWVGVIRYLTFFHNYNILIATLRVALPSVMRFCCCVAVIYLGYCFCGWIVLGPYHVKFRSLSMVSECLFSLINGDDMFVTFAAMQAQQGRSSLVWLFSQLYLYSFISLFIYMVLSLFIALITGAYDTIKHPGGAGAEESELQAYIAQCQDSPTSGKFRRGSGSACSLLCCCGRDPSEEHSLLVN
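Tet-induced TRPML1-DL cells loaded with Ca8 no-wash calcium dye were read kinetically on FDSS. Compound addition was followed by EC80 agonist 54-4 (4 uM final); inhibition was read over 110 s.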
Six1-Eya2 inh: Six1/Eya2 interaction inhibition; activity change, % (no concentration beside the values); 0.56% of 360,000 active; Q15475+O00167; AID 651725; AlphaScreen GST-Six1/His-Eya2 binding, biochemical; hits give low values; control for the full effect not named in the record; in the data active = activity change below about -65%; inconclusive = about -30% to -65%; inactive = above about -30%; also: % is scaled to controls: 0 for no effect and ±100 for the full control effect; compound concentration not given in the record
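GST-Six1 + His-Eya2 (5X stock: 250/500 nM); Tris pH 8.0, 300 mM NaCl, 0.05% BSA, 0.02% Tween 20; GSH donor/Ni acceptor beads; 1 h 37 °C dark; AlphaScreen readout.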
TRPV1 PAM: enhances activation of the human vanilloid receptor TRPV1 | AID 540277 | TRPV1-expressing cells, Fluo-8 calcium influx, capsaicin EC20 potentiation; host cell line not named in the record; control for the full effect not named in the record | 0.02% of 320,000 active | Q8NER1 | potentiation, % at 8.33 µM; active means potentiation above 80%; inconclusive means 30% to 80%; inactive means below 30%; also: 0% is about no effect
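Fluo-8 calcium influx in TRPV1-expressing cells, kinetic read (ex 480/em 520 nm). Compound added and read 3 min for agonist activity, followed by capsaicin at EC20 final and 2 min further read for enhancement.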
TRPML1 agonist: agonists of human TRPML1 channel; TRPML1-expressing cells, Ca2+ dye fluorescence, FDSS; host cell line not named in the record; reference of the full effect not given here; activation, % (concentration not given with the values); 0.12% of 410,000 active; in the data active = activation above about 50%; inconclusive = about 30% to 50%; inactive = below about 30%; also: 0% is about no effect; the text of the record puts the active cut at 80%
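Agonist activity was taken from a 110 s kinetic Ca2+ dye read on the FDSS after pinning compounds onto TRPML1-DL cells. The cells were seeded at 1,500/well with Tet inducer, incubated about 16 h, then dye-loaded at room temperature.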
CtBP-E1A inh: blocks the CtBP interaction with E1A; AlphaScreen GST-E1A/His-CtBP binding, 1536-well; hits give low values; control for the full effect not named in the record; activity change, % (concentration not given with the values); 0.49% of 340,000 active; in the data active means activity change below about -65%; inconclusive means about -30% to -65%; inactive means above about -30%; also: % is scaled to controls: 0 for no effect and ±100 for the full control effect
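GST-E1A and His-tagged CtBP (125 nM each as 5X stock) were preincubated with pin-transferred compound for 2 h at 37 °C in the dark, then glutathione donor and nickel acceptor beads were added for 1 h before AlphaScreen reading.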
D2 PAM: human D2 receptor positive allosteric modulation; P14416; DiscoveRx D2 beta-arrestin cells, luminescence, 90 min; 100% = 57 uM dopamine signal; potentiation, % (no concentration beside the values); 0.23% of 360,000 active; active = potentiation of 50% or more; inconclusive = 30% to 50%; inactive = 30% or less;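 also: compound concentration not given in the record; tested on top of an EC20 dose of dopamine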
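D2 cells co-treated with compound plus 50 nM dopamine (EC20) for 90 min at 37 deg C to detect potentiation. Beta-arrestin recruitment was read as enzyme-fragment luminescence after 1 h at ambient temperature. Full response was set by 57 uM dopamine.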
An asterisk follows results filed as active; ? = inconclusive; . = not tested or not shown; & = joins results of further samples. Compounds were not picked by outcome (roughly 0.95% active in at least one column).

SMILES | TRPML1 inh | Six1-Eya2 inh | TRPV1 PAM | TRPML1 agonist | CtBP-E1A inh | D2 PAM
CCN(Cc1ccccc1)C(=O)Cn1c(=O)oc2ccccc21 | -12 | 2 | 2 | 0.3 | 22 | -19
O=C(C1CCN(S(=O)(=O)c2cccc3cccnc23)CC1)N1CCN(c2ccccn2)CC1 | -4 | -17 | 2 | 0.7 | -5 | 0
CCOC(=O)Cc1csc(SCC(=O)NC(C)C23CC4CC(CC(C4)C2)C3)n1 (centres undefined) | 10 | 4 | 3 | 0.2 | 5 | 0
N#CC(C(=O)Nc1cccc(Cl)c1)=C1Nc2ccccc2N1 | -14 | 5 | 0 | 0.0 | 0 | 5
Cc1c(C)n(C)c2ccc(C(=O)NCCCN3CCCCC3C)cc12 (centres undefined) | -13&17 | -19 | ? | 0.5&0.9 | -20 | -34
Cn1c(SCC(=O)Nc2ccc3c(c2)OCCO3)nnc1-c1cccnc1 | -12 | -1 | ? | -0.5 | -23 | -23
CS(=O)(=O)Nc1cccc(C2=NN(S(=O)(=O)c3ccccc3)C(c3ccco3)C2)c1 (centres undefined) | -2 | -10 | -17 | 3.3 | 6 | 0
CCOc1ccc(S(=O)(=O)Nc2cccnc2)cc1 | -14 | 5 | -10 | 4.3 | 0 | -10
NC(=O)NN=C1CCN2CCCc3cccc1c32 | 36 | -1 | . | 1.6 | 2 | -7
CN(Cc1ccncn1)C(=O)C1CCC(=O)N(Cc2cccc(C(F)(F)F)c2)C1 (centres undefined) | -19 | 0 | -4 | -0.3 | 1 | -11

Part of the list above in order of SMILES length, falling.
SMILES | TRPML1 inh | Six1-Eya2 inh | TRPV1 PAM | TRPML1 agonist | CtBP-E1A inh | D2 PAM
O=C(C1CCN(S(=O)(=O)c2cccc3cccnc23)CC1)N1CCN(c2ccccn2)CC1 | -4 | -17 | 2 | 0.7 | -5 | 0
Cc1c(C)n(C)c2ccc(C(=O)NCCCN3CCCCC3C)cc12 (centres undefined) | -13&17 | -19 | ? | 0.5&0.9 | -20 | -34
CCN(Cc1ccccc1)C(=O)Cn1c(=O)oc2ccccc21 | -12 | 2 | 2 | 0.3 | 22 | -19

Later entries
SMILES | TRPML1 inh | Six1-Eya2 inh | TRPV1 PAM | TRPML1 agonist | CtBP-E1A inh | D2 PAM
O=C(NC1CCCCC1)C(c1cccs1)N(Cc1cccs1)C(=O)c1cccs1 (centres undefined) | 21 | -1 | -5 | 1.7 | 3 | -28
COc1ccc(N=C(C)c2sc3ccccc3c2O)cc1 | 39 | 3 | 0 | 1.4 | 5 | -5
O=C(O)c1ccc(S(=O)(=O)N2CCN(c3ccccn3)CC2)cc1 | 24 | 0 | 5 | -0.7 | . | 9
CCOc1ccc(N2CC(C(=O)Nc3nnc(CC)s3)CC2=O)cc1 (centres undefined) | 3 | -3 | -13 | -0.6 | 8 | 1
CC(C)(C)c1ccccc1NC(=O)c1ccc(-n2cncn2)c([N+](=O)[O-])c1 | -1 | 5 | -5 | -0.7 | 12 | -4
CC(C)(C)c1ccc(C(=O)NNC(=O)Cc2cccc3ccccc23)cc1 | 11 | -6 | 29 | 0.2 | 14 | 5
O=C(c1ccc2c(c1)OCO2)N(Cc1cccs1)C1(C(=O)NC2CCCCC2)CCCCC1 | 17 | -24 | -23 | 2.0 | 4 | -6
Cc1cccc(-c2nc3ccccc3c(=O)n2NC(=O)/C=C/c2ccc([N+](=O)[O-])cc2)c1 | -7 | -8 | 20 | 2.9 | -81* | -1
Cc1cc(C)cc(NC(=O)N2CCCC2C(=O)NCc2ccco2)c1 (centres undefined) | 5 | 4 | -7 | -1.0 | -1 | -2
CC(C)Oc1ccc(C2CC(=O)N(C)C2=O)cc1 (centres undefined) | -7 | -4 | -4 | -0.7 | . | -13

Next part
SMILES | TRPML1 inh | Six1-Eya2 inh | TRPV1 PAM | TRPML1 agonist | CtBP-E1A inh | D2 PAM
CCOc1ccc(N(Cc2cc3cc(C)ccc3[nH]c2=O)C(=O)COC)cc1 | -10 | 3 | 2 | 0.1 | 9 | -10
COc1ccc(CN2CCNC(=O)C2CC(=O)NCC2CCOCC2)c(C)c1C (centres undefined) | 1 | 16 | 1 | 0.8 | 3 | -9
O=[N+]([O-])c1cc(C=Nc2ccc3ccccc3c2)ccc1Br | -3 | ? | 4 | 0.8 | -30 | -12
Cc1nc(-c2ccc(C(=O)Nc3ccc(F)cc3)cc2)cs1 | 20 | 17 | 21 | 1.3 | 2 | -11
CCn1c(SCC(=O)N(C)C)nc2cc(S(=O)(=O)N3CCOCC3)ccc21 | -9 | -1 | -15 | -0.2 | 6 | -1
COCCNc1nc(NCc2ccc(NC(C)=O)cc2)c2sccc2n1 | . | 0 | . | -0.6 | 0 | -4
Cc1ccc2nc(-c3ccccc3)c(Cc3ccccn3)n2c1 | 36 | -20 | . | -0.1 | -13 | -9
N#C/C(=C(O)\C=C\c1ccccc1)c1nc2ccccc2[nH]1 | -12 | 0 | 19 | -0.5 | . | -19
CCOc1ccc(NC2=C(Cl)C(=O)N(C3CCCCC3)C2=O)cc1 | 10 | -1 | 15 | -1.9 | 1 | -3
CCCCN(C)C(=S)Nc1ccc2nc(N3CCN(CC)CC3)cc(C)c2c1 | . | -1 | 5 | . | -15 | -11
CCCC[C@H]1COCCS(=O)(=O)N1Cc1ccc(F)cc1 | -25 | -1 | 24 | 0.6&-0.1 | 0 | -11
O=C(CN(C(=O)CCC(=O)Nc1ccccn1)C1CCCC1)NCc1ccccc1 | 4 | -1 | ? | -0.2 | -3 | -3

By substructure, the entries above with four or more nitrogen atoms.
SMILES | TRPML1 inh | Six1-Eya2 inh | TRPV1 PAM | TRPML1 agonist | CtBP-E1A inh | D2 PAM
O=C(C1CCN(S(=O)(=O)c2cccc3cccnc23)CC1)N1CCN(c2ccccn2)CC1 | -4 | -17 | 2 | 0.7 | -5 | 0
N#CC(C(=O)Nc1cccc(Cl)c1)=C1Nc2ccccc2N1 | -14 | 5 | 0 | 0.0 | 0 | 5
Cn1c(SCC(=O)Nc2ccc3c(c2)OCCO3)nnc1-c1cccnc1 | -12 | -1 | ? | -0.5 | -23 | -23
NC(=O)NN=C1CCN2CCCc3cccc1c32 | 36 | -1 | . | 1.6 | 2 | -7
CN(Cc1ccncn1)C(=O)C1CCC(=O)N(Cc2cccc(C(F)(F)F)c2)C1 (centres undefined) | -19 | 0 | -4 | -0.3 | 1 | -11
CCOc1ccc(N2CC(C(=O)Nc3nnc(CC)s3)CC2=O)cc1 (centres undefined) | 3 | -3 | -13 | -0.6 | 8 | 1
CC(C)(C)c1ccccc1NC(=O)c1ccc(-n2cncn2)c([N+](=O)[O-])c1 | -1 | 5 | -5 | -0.7 | 12 | -4
Cc1cccc(-c2nc3ccccc3c(=O)n2NC(=O)/C=C/c2ccc([N+](=O)[O-])cc2)c1 | -7 | -8 | 20 | 2.9 | -81* | -1
CCn1c(SCC(=O)N(C)C)nc2cc(S(=O)(=O)N3CCOCC3)ccc21 | -9 | -1 | -15 | -0.2 | 6 | -1
COCCNc1nc(NCc2ccc(NC(C)=O)cc2)c2sccc2n1 | . | 0 | . | -0.6 | 0 | -4
CCCCN(C)C(=S)Nc1ccc2nc(N3CCN(CC)CC3)cc(C)c2c1 | . | -1 | 5 | . | -15 | -11
O=C(CN(C(=O)CCC(=O)Nc1ccccn1)C1CCCC1)NCc1ccccc1 | 4 | -1 | ? | -0.2 | -3 | -3
